Screening results: PubChem BioAssay, PCMD
Calb biofilm kill: mixtures killing C. albicans biofilm; inhibition, % at 7.6 µM; AID 1242; 0.02% of 120,000 active; C. albicans biofilm persisters + clotrimazole, fluorescence viability; primary screen in compound mixtures of four per well;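 active = inhibition above 30.3% in the primary screen of four-compound pools, then above 30% when the compound was retested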;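 note: compounds exposed to preformed 24 h biofilms for 48 h; the number belongs to the whole pool; some results filed as inactive read as strong as hits; inactives centre near 12; 0% = biofilm with clotrimazole alone and 100% = kill control; retested singly at about 60 µM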
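Incubation: 24 h biofilm formation, then 48 h compound exposure, 37 °C | Material: C. albicans biofilms | Buffer or medium: RPMI/MOPS medium, pH 7.0 | Measured by: 2-h Alamar Blue fluorescence, 535/590 nm excitation/emission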
* marks the source's active call; other numbers are inactive results. This is a subset; rates above refer to the full screens.

Screening CCN(CC)C(=O)CCSc1nnc(-c2ccncc2)o1 returned Calb biofilm kill 13.9.
Screening CCOC(=O)N1CCN(C(=O)CCCn2c(=S)[nH]c3ccsc3c2=O)CC1 returned Calb biofilm kill 11.3.
`COc1ccc(OC)c(N2C(N)=C(C#N)C(c3ccc(OC)c(O)c3)C3=C2CC(C)(C)CC3=O)c1` (stereo not drawn) gave Calb biofilm kill 17.3.
Screening O=C1N(c2ccccc2)C(=Nc2ccccc2)SC12CC2 returned Calb biofilm kill 16.8.
CC(=O)OC[C@H]1O[C@@H](Sc2cccc3cccnc23)[C@H](OC(C)=O)[C@@H](OC(C)=O)[C@H]1OC(C)=O was read as Calb biofilm kill 10.9.
Screening Cc1cc(C)c2c(=O)[nH]n(C3CCCCCC3)c2n1 returned Calb biofilm kill 12.7.
Screening COc1ccc(CCNC(=O)c2cc(-c3ccc(Cl)c(Cl)c3)oc2C)cc1 returned Calb biofilm kill 20.3.
For NCC(O)(c1ccc(Cl)cc1)c1ccc(Cl)cc1 the results were Calb biofilm kill 7.4.
Screening Nc1c(-c2ccccc2)c(CN2CCOCC2)nn1-c1ccccc1 returned Calb biofilm kill 15.4.
Screening CC(O)[C@H]1CNC(=O)C(=O)N1CC1(c2ccccc2)CC1 (stereo partly drawn) returned Calb biofilm kill 8.9.
For COc1cc(C(=O)NCCCNc2ccc([N+](=O)[O-])cc2)cc(OC)c1OC the results were Calb biofilm kill 11.2.
Screening CN(C)CC(C)(C)CNS(=O)(=O)c1cccc2nsnc12 returned Calb biofilm kill 14.5.

Part of the list above in order of molecular weight, lowest first.
Screening CC(O)[C@H]1CNC(=O)C(=O)N1CC1(c2ccccc2)CC1 (stereo partly drawn) returned Calb biofilm kill 8.9.
Screening COc1ccc(CCNC(=O)c2cc(-c3ccc(Cl)c(Cl)c3)oc2C)cc1 returned Calb biofilm kill 20.3.
CC(=O)OC[C@H]1O[C@@H](Sc2cccc3cccnc23)[C@H](OC(C)=O)[C@@H](OC(C)=O)[C@H]1OC(C)=O was read as Calb biofilm kill 10.9.

(further entries)
For CC(C)(O)[C@H](O)COc1c2occc2cc2ccc(=O)oc12 the results were Calb biofilm kill 9.0.
CCc1nnc(NC(=O)CCNC(=O)c2ccccc2Cl)s1 was read as Calb biofilm kill 8.0.
O=C(O)c1sccc1OCc1ccccc1 was read as Calb biofilm kill 7.7.
For COC(=O)Cc1cccc2c(=O)c3ccccc3oc12 the results were Calb biofilm kill 10.9.
For Cc1ccccc1NC(=O)Nc1nnc(Cc2ccc([N+](=O)[O-])cc2)s1 the results were Calb biofilm kill 10.1.
Screening Cc1ccc(/C=C/C(=O)O)cc1S(=O)(=O)N1CCc2ccccc2C1 returned Calb biofilm kill 10.3.
CCNC(=O)C/C(C)=N/NC(=O)C(=O)Nc1ccc(CC)cc1 was read as Calb biofilm kill 10.3.
CCCSc1nsc(NC(=O)CC)n1 was read as Calb biofilm kill -0.2.
`N#CCN1CCN(CC(=O)c2ccc(Br)cc2)CC1` gave Calb biofilm kill 12.7.
`COc1cccc(-n2nc(C#N)c(Cl)cc2=O)c1` gave Calb biofilm kill 5.8.
Cc1ccc(-n2nnnc2SC(C)C(=O)Nc2ccccc2-c2ccccc2)cc1 (stereo not drawn) was read as Calb biofilm kill -6.8.
`CNC(=O)c1ccccc1NC(=O)c1ccco1` gave Calb biofilm kill 11.5.
For COc1cc(/C=C2\SC(=S)N(CC(=O)NC(C)(C)C)C2=O)cc(OC)c1OC the results were Calb biofilm kill 8.6.
Screening O=c1[nH]c(CSc2ncnc3sc(-c4ccccc4)cc23)nc2ccccc12 returned Calb biofilm kill 9.4.
For O=C(COC(=O)c1cc(=O)[nH]c2ccccc12)NC1CCCCCCC1 the results were Calb biofilm kill 13.3.
Screening Oc1ccc(/C=N/n2c(-c3ccco3)csc2=Nc2cccnc2)c(O)c1 returned Calb biofilm kill 15.5.
`COc1ccc(CSCCc2n[nH]c(=S)n2-c2ccccc2)cc1` gave Calb biofilm kill 6.3.
For COC(=O)c1ccc(/C=N/NC(=O)CCSc2nc3ccccc3s2)cc1 the results were Calb biofilm kill -1.1.
For COc1ccc(OC)c(NC(=O)CSc2ccc3nnc(-c4cccnc4)n3n2)c1 the results were Calb biofilm kill 20.9.
Screening CC(=O)OCC1=C(C(=O)O)N2C(=O)C(NC(=O)Cn3nc(C(F)F)c(Cl)c3C)C2SC1 (stereo not drawn) returned Calb biofilm kill 16.2.
Screening O=C(Nc1nccs1)C1(c2ccc(Cl)cc2)CC1 returned Calb biofilm kill 18.9.
Screening Cc1c(Cl)c([N+](=O)[O-])nn1CC(=O)NCc1cccnc1 returned Calb biofilm kill 4.4.
Screening CCNC(=O)CCSc1nnc(-c2ccncc2)o1 returned Calb biofilm kill 3.1.
Screening CC(=O)Nc1ccc(S(=O)(=O)N2CCN(Cc3cccc([N+](=O)[O-])c3)CC2)cc1 returned Calb biofilm kill 15.1.
For CCCNC(=S)Nc1ccccc1 the results were Calb biofilm kill 13.4.
`O=C1C=C(N(CCO)Cc2ccccc2)c2ccccc2C1=O` gave Calb biofilm kill 17.2.
For Cc1nc(-c2cccc(NC(=O)c3cccs3)c2)cs1 the results were Calb biofilm kill 9.2.
For CCN(CC)C(=O)C1CCN(S(=O)(=O)c2ccc(-n3cnnn3)cc2)CC1 the results were Calb biofilm kill 23.0.
`CCCCNS(=O)(=O)c1ccc2nc(-c3cccnc3)cc(C(=O)NCCOC)c2c1` gave Calb biofilm kill 10.7.
`CSc1nsc(SC)c1CO` gave Calb biofilm kill 9.3.
CC/C(C)=N/NS(=O)(=O)c1ccc(C)c([N+](=O)[O-])c1 was read as Calb biofilm kill 15.0.
For CC1CCN(c2nc3ccccn3c(=O)c2C=O)CC1 the results were Calb biofilm kill 25.0.
`Cc1ccc(-c2nn(-c3ccccc3)cc2C(=O)Nc2cccc(S(=O)(=O)N3CCOCC3)c2)cc1` gave Calb biofilm kill 8.8.
Screening COCCNC(=O)CN(C(=O)Cn1nnc2ccccc21)c1cc(C)cc(C)c1 returned Calb biofilm kill 10.5.
Screening CCNC(=O)CC1SC(=Nc2cccc3ccccc23)N(C)C1=O (stereo not drawn) returned Calb biofilm kill 3.9.
Screening Brc1ccc(CSc2ccc3nnc(-c4cccnc4)n3n2)cc1 returned Calb biofilm kill -0.4.

6 records picked at random from the list so far, as already listed:
For CCN(CC)C(=O)C1CCN(S(=O)(=O)c2ccc(-n3cnnn3)cc2)CC1 the results were Calb biofilm kill 23.0.
Screening Brc1ccc(CSc2ccc3nnc(-c4cccnc4)n3n2)cc1 returned Calb biofilm kill -0.4.
`CCCCNS(=O)(=O)c1ccc2nc(-c3cccnc3)cc(C(=O)NCCOC)c2c1` gave Calb biofilm kill 10.7.
For CCCNC(=S)Nc1ccccc1 the results were Calb biofilm kill 13.4.
For Cc1nc(-c2cccc(NC(=O)c3cccs3)c2)cs1 the results were Calb biofilm kill 9.2.
`O=C1C=C(N(CCO)Cc2ccccc2)c2ccccc2C1=O` gave Calb biofilm kill 17.2.

Later entries
`CC(=O)c1nnn(-c2cccc(C#N)c2)c1C` gave Calb biofilm kill -13.1.
Cc1ccc(C)c(-n2c(-c3ccncc3)n[nH]c2=S)c1 was read as Calb biofilm kill 24.9.
For COc1ccccc1CN(C)CC(=O)Nc1ccc(Cl)cc1F the results were Calb biofilm kill 12.0.
`Cc1ccc(OCC(=O)NS(=O)(=O)c2ccccc2)cc1` gave Calb biofilm kill 12.2.
Screening COC(=O)COc1cccc(NC(=O)c2ccc(Cl)cc2)c1 returned Calb biofilm kill 15.6.
For C/C(CCCO)=N/Nc1ccc([N+](=O)[O-])cc1[N+](=O)[O-] the results were Calb biofilm kill 13.2.
CCC(C)NCCOCCOc1ccc(C)cc1OC (stereo not drawn) was read as Calb biofilm kill 14.8.
`O=C1C2CCCCC2C(=O)N1Cc1ccccc1` (stereo not drawn) gave Calb biofilm kill 9.6.
O=C(Nc1nnc(-c2ccccc2F)s1)C1CCN(S(=O)(=O)c2ccc(Cl)cc2)CC1 was read as Calb biofilm kill 6.7.
Nc1nc(SCc2ccc(Cl)c(Cl)c2)n[nH]1 was read as Calb biofilm kill 13.8.
Cc1cccc(NC(=O)c2ccc(S(=O)(=O)N3CCCCC3)cc2)n1 was read as Calb biofilm kill 20.7.
`N/C(=N\OC(=O)c1ccco1)c1cccc([N+](=O)[O-])c1` gave Calb biofilm kill 17.0.
Screening CN1N=C(C(=O)N2CCc3c([nH]c4ccccc34)C2c2c(F)cccc2Cl)CCC1=O (stereo not drawn) returned Calb biofilm kill 21.8.
Cc1cc(C)cc(NC(=O)CSc2nncn2-c2ccccn2)c1 was read as Calb biofilm kill 9.5.
Cn1c(CN2CCCC2)nc2cc(NC(=O)COc3ccc([N+](=O)[O-])cc3)ccc21 was read as Calb biofilm kill 2.5.
For Cc1ccc(OCCOC(=O)CCc2nc3ccccc3c(=O)[nH]2)cc1 the results were Calb biofilm kill 11.8.
Cc1c(NC(=O)/C(C#N)=C/c2ccc(-c3cc(Cl)ccc3Cl)o2)c(=O)n(-c2ccccc2)n1C was read as Calb biofilm kill 26.3.
For O=C(CSc1ccc(-c2cccs2)nn1)Nc1ccccc1F the results were Calb biofilm kill 3.2.
`O=C(C[n+]1ccccc1)N1c2ccccc2Sc2ccccc21` gave Calb biofilm kill 23.8.
For CCc1ccc(C(C)NC(=O)c2ncn[nH]2)cc1 (stereo not drawn) the results were Calb biofilm kill 11.1.
Screening O=C1NCCCC1C(=O)N/N=C/c1cccc(Cl)c1 (stereo not drawn) returned Calb biofilm kill -0.9.
Screening Cc1nc(SCC(=O)N2CCN(C(=O)c3ccco3)CC2)c2c(C)c(C)sc2n1 returned Calb biofilm kill 13.4.
O=C(CN1C(=O)/C(=C\c2ccc(F)cc2)Oc2ccccc21)N1CCN(c2ccccn2)CC1 was read as Calb biofilm kill 14.1.
Cc1ccc(NC(=S)Nc2cc(-c3ccccc3)[nH]n2)cc1Cl was read as Calb biofilm kill 2.3.
Screening C/C=C/c1ccc(OCC(=O)OCC(=O)NC2CC2)c(OC)c1 returned Calb biofilm kill 11.3.
For O=C(CC1C(=O)NCCN1Cc1cccc(Oc2ccccc2)c1)NCC1CCOCC1 (stereo not drawn) the results were Calb biofilm kill 8.5.
`CC1=C/C(=N\NC(=S)NCCc2ccccc2)CC(C)(C)C1` gave Calb biofilm kill -9.3.
`CCCCCC(=O)Nc1cccc(C2=NOC3(C2)C[C@H](C(N)=O)N(C(=O)c2ccccc2C(=O)c2ccccc2)C3)c1` (stereo partly drawn) gave Calb biofilm kill 13.2.
`CCCC(=O)NC(c1ccc(OC)c(OC)c1)c1cc(Cl)c2cccnc2c1O` (stereo not drawn) gave Calb biofilm kill 11.7.
`Cn1cc([N+](=O)[O-])c(C(=O)n2cccn2)n1` gave Calb biofilm kill 22.3.
Screening O=C(O)c1cccc(CSc2n[nH]c(-c3ccc(Cl)cc3Cl)n2)c1 returned Calb biofilm kill 17.2.
For COc1ccc(Nc2nc(N)nc(CN3CCN(c4ccc(F)cc4)CC3)n2)cc1 the results were Calb biofilm kill 25.2.
For CCCCCN1N=C(C)CC1=O the results were Calb biofilm kill 8.6.
For O=[N+]([O-])c1cccnc1Oc1ccc(F)cc1F the results were Calb biofilm kill 7.2.
`O=C(c1c[nH]c2ccccc12)C(F)(F)F` gave Calb biofilm kill 21.6.
For Cc1sc2nc(CSCC(=O)Nc3ccc(OC(F)F)cc3)[nH]c(=O)c2c1C the results were Calb biofilm kill 25.0.
O=C(CN1CCN(Cc2ccccc2Cl)C1=O)NCc1ccccn1 was read as Calb biofilm kill 22.6.
`CCn1c(=NC(=O)C2COc3ccccc3O2)sc2c(C)ccc(OC)c21` (stereo not drawn) gave Calb biofilm kill 15.5.
For CCOc1ccccc1N(CC(=O)NCc1ccccc1)C(=O)CCC(=O)Nc1cc(C)ccn1 the results were Calb biofilm kill 29.2.
COc1ccc(-c2ccc(CO)o2)cc1N was read as Calb biofilm kill -9.3.
For CC(C)n1c2ccccc2c2cc([N+](=O)[O-])ccc21 the results were Calb biofilm kill 18.5.
`O=[N+]([O-])c1ccccc1N/N=C\c1ccccc1F` gave Calb biofilm kill 12.2.
`COc1ccccc1NC(=O)N1CCN(c2ccnc3cc(Cl)ccc23)CC1` gave Calb biofilm kill 17.0.
`COC(=O)c1cc(C(=O)OCC(=O)N(C)C2CCS(=O)(=O)C2)cc([N+](=O)[O-])c1` (stereo not drawn) gave Calb biofilm kill -1.0.
Cc1ccc(/C=N/NC(=S)NCCc2ccccc2)s1 was read as Calb biofilm kill 15.0.
COC(CNS(=O)(=O)c1ccc(S(=O)(=O)N2CCCC2)cc1)OC was read as Calb biofilm kill 6.8.
COC(=O)C1CC(O)CN1S(=O)(=O)c1cccs1 (stereo not drawn) was read as Calb biofilm kill 6.9.
For CC(C)C(NS(=O)(=O)c1ccccc1)C(=O)OCc1cc([N+](=O)[O-])cc2c1OCOC2 (stereo not drawn) the results were Calb biofilm kill 10.4.
For COc1ccc(C2c3ccc4ccccc4c3Oc3ncn(CCCO)c(=N)c32)cc1 (stereo not drawn) the results were Calb biofilm kill 4.0.
Screening COc1ccc(/C=N/NC(=O)c2ccncc2)cc1Cn1nc([N+](=O)[O-])c(Br)c1C returned Calb biofilm kill 11.0.
Screening Cc1ccc(C(=O)Nc2ccccc2C(=O)N2CCCCCC2)cc1 returned Calb biofilm kill 11.8.
COc1ccccc1NC(=O)CSc1nnnn1-c1ccc(C)cc1 was read as Calb biofilm kill 12.9.
Screening O=C(CSc1ncnc2scc(-c3ccccc3)c12)Nc1ccc(C(=O)O)cc1 returned Calb biofilm kill 5.3.
For C[C@@]1([C@@H](NC(=O)c2cccs2)c2ccc(-c3ccccc3)cc2)C[C@H]1C1CCCCC1 the results were Calb biofilm kill 16.6.
`COc1cc(/C=N/n2nnnc2N)cc(OC)c1OC` gave Calb biofilm kill 19.1.
`CCN(CC(=O)NC1CCS(=O)(=O)C1)C(=O)/C=C/c1cccs1` (stereo not drawn) gave Calb biofilm kill 15.1.
